Screens deposited in PubChem by National Center for Advancing Translational Sciences (NCATS).
LASV entry inh: Lassa virus entry inhibition. actives 1.2% (n = 300,000). AID 540256. Potency, µM (doses to about 37.9 µM), inactives show at the top dose activity change, negative = inhibition, usual class: inhibitors. Lassa virus pseudotype entry inhibition, cell reporter; control for the full effect not named in the record; active means well fitted inhibition curve with a large enough effect; inconclusive means small, poorly fitted or top-dose-only effect, or effect the other way; inactive means flat fitted curve, though single readings scatter; tested in HEK293 cells; further: on the % scale 0 is the no-effect control and ±100 the full control effect; nearly all actives have a fitted effect of over 50% in size; luciferase read-out
Marburg entry inh: inhibitors of Marburg virus binding or cell entry; Marburg virus pseudotyped entry inhibition, cell reporter; control for the full effect not named in the record; about a third of the inactives were read at about 46 µM; Potency, µM (top dose mostly 37.8 µM), for the others: top-dose activity change, negative = inhibition, most hits filed as inhibitors; actives 1.8% (n = 300,000); active = well fitted inhibition curve with a large enough effect; inconclusive = small, poorly fitted or top-dose-only effect, or effect the other way; inactive = flat fitted curve, though single readings scatter; tested in HEK293 cells; about a fifth of its hits are not listed in these tables; further: on the % scale 0 is the no-effect control and ±100 the full control effect; luciferase read-out
Cruzain inh Det: blocks cruzain activity in presence of Triton detergent; Potency, µM, without a hit: max response, negative = inhibition, actives largely listed as inhibitors; P25779; purified cruzain, Z-FR-AMC fluorescence, 0.01% Triton; AID 1478; actives 0.43% (n = 200,000);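 further: plate controls were neutral wells for no effect and buffer without enzyme for full effect; nearly all actives have a fitted effect of over 40% in size; top concentration of the series not given in the record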
Target sequence (P25779 123-467 limits assumed): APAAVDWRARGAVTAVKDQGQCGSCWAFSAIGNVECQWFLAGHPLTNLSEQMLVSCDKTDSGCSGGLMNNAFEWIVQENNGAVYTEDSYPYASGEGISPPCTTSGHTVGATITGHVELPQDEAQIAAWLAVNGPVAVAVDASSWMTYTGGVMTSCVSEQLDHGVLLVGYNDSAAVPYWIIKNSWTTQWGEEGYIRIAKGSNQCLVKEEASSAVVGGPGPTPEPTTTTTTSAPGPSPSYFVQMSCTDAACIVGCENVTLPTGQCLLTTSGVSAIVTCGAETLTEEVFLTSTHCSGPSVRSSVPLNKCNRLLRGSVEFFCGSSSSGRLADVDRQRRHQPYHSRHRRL
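Purified cruzain (1.5 nM final) was preincubated with compounds for 15 min at room temperature in 100 mM sodium acetate pH 5.5, 5 mM DTT, 0.01% Triton X-100. Reaction started with 2 uM Z-FR-AMC; AMC fluorescence change over 60 s gave activity.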
SARS PLP yeast: inhibitors of SARS-CoV papain-like protease in yeast; S. cerevisiae expressing SARS-CoV PLpro, growth rescue; control for the full effect not named in the record; Potency, µM (doses to about 32.9 µM), inactives show top-dose activity, positive = growth rescue; actives 0.19% (n = 330,000); AID 485353; active means well fitted rising curve with a large enough effect; inconclusive means small, poorly fitted or top-dose-only effect; inactive means no such curve, though single readings can be large or run the other way; further: 0% is about no effect; nearly all actives have a fitted effect of over 55% in size; growth read by luminescence after 48 h
StopGo reporter: FMDV 2A StopGo reporter, luciferase signal; AID 1159524; Potency, µM (top dose mostly 57.9 µM), for inactives: top-dose signal change, negative = less light; actives 1.2% (n = 410,000); human cells with a luciferase reporter of 2A StopGo recoding; control for the full effect not named in the record; active = well fitted falling curve with a large enough effect; inconclusive = small, poorly fitted or top-dose-only effect; inactive = no such curve, though single readings can be large or run the other way; tested in HEK293T cells; further: on the % scale 0 is the no-effect control and ±100 the full control effect; nearly all actives have a fitted effect of over 45% in size; luciferase light after 4 h
NS1 function inh: inhibitors of influenza NS1 protein function. AID 2326. Potency, µM (series often up to 46.1 µM), for inactives: at the top dose activity, positive = more growth. actives 0.4% (n = 270,000). S. cerevisiae slowed by influenza A NS1, growth recovery by OD600; active means well fitted rising curve with a large enough effect; inconclusive means small, poorly fitted or top-dose-only effect; inactive means no such curve, though single readings can be large or run the other way; further: nearly all actives have a fitted effect of over 50% in size
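Growth recovery, yeast-based: influenza A NS1 expressed in S. cerevisiae causes slow growth, and suppressors are detected by OD600. The parent strain without NS1 is used as positive control.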
Cruzain noTriton: inhibitors of Trypanosoma cruzi cruzain without detergent | AID 1476 | P25779 | purified cruzain, Z-FR-AMC fluorescence, no detergent | actives 2.3% (n = 200,000) | Potency, µM, without a hit: max response, negative = inhibition, usual class: inhibitors;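 further: plate controls were enzyme without inhibitor for no effect and buffer without enzyme for full effect; nearly all actives have a fitted effect of over 40% in size; top concentration of the series not given in the record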
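Purified cruzain at 1.5 nM, pre-incubated 15 min with compound at room temperature in 100 mM sodium acetate pH 5.5, 5 mM DTT, 0.00005% Triton X-100. Reaction started with 2 uM Z-FR-AMC; AMC fluorescence increase over 60 s gives rate.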
RE007 growth inh: less growth of the S. pombe RE007 Vpr strain | Potency, µM (titrated, usually from 92.2 µM), for the others: at the top dose activity change, negative = less growth | actives 0.21% (n = 360,000) | S. pombe RE007 Vpr strain, BacTiter-Glo ATP luminescence, 24 h; control for the full effect not named in the record | AID 651644; active = well fitted falling curve with a large enough effect; inconclusive = small, poorly fitted or top-dose-only effect; inactive = no such curve, though single readings can be large or run the other way;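 further: on the % scale 0 is the no-effect control and ±100 the full control effect; nearly all actives have a fitted effect of over 50% in size; the assay follows cell death caused by Vpr and the record does not say whether a fall means rescue or toxicity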
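Fission yeast RE007 carrying one integrated HIV-1 vpr copy, seeded at OD 0.01 in PMG+AL medium with 23 nL pinned compound. Grown 24 h at 30 degrees; viability read by BacTiter-Glo luminescence after 5 min.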
Numbers without * were called inactive; ? = inconclusive; nt = not tested or not shown; [ ] = dose if it differs, or a comment. Unless noted, the call rests on the fitted dose curve; in most records, active means well fitted curve in the direction sought with a large enough effect; inconclusive means small, poorly fitted or top-dose-only effect, or another doubt; inactive means no such curve, though single readings can be large; an effect the other way counts as inactive or inconclusive. Potency means the concentration at half of the fitted maximal effect.

SMILES	LASV entry inh	Marburg entry inh	Cruzain inh Det	SARS PLP yeast	StopGo reporter	NS1 function inh	Cruzain noTriton	RE007 growth inh
CC(C)NC(=O)c1cc2c(C(F)(F)F)nn(C)c2s1	1%	-9%	1.3%	2%	-5%	3%	2%	0%
O=S(=O)(NCC(c1ccco1)N1CCc2ccccc2C1)c1ccc(Br)cc1 (stereo not given)	?	?	nt	-14%	11%	nt	nt	-2%
Cc1onc(-c2c(Cl)cccc2Cl)c1C(=O)NC(C)(C)CO	0%	-4%	2.6%	1%	20%	3%	1%	-13%
Cc1ccc2oc(-c3ccc(Cl)c(NC(=O)c4cc5ccccc5o4)c3)nc2c1	?	?	0.0%	nt	54%[activator]	nt	7%	nt
COCCN1CC(=O)N2C(c3cccc(OC)c3)c3[nH]c4ccccc4c3C[C@H]2C1=O (stereo not given in full)	-6%	6%	nt	1%	44%[activator]	-2%	nt	14%
O=C(OCC(=O)N1CCN(S(=O)(=O)c2ccccc2)CC1)c1ccc([N+](=O)[O-])o1	3%	3%	nt	0%	-12%	nt	nt	-14%
Cc1cc(C)c(-c2cc(NC(=O)CSc3nncn3C)n(-c3ccccc3)n2)cc1C	-1%	-28%	-2.5%	-3%	-17%	1%	?	16%
O=C(CSCc1ccccc1Cl)Nc1ccc(C(=O)O)cc1	9%	16%	nt	-3%	-5%	-8%	nt	2%
O=C1[C@@H]2CSC(c3ccc(F)cc3)N2C(=O)N1c1ccc(Cl)cc1 (stereo not given in full)	-5%[46.1 µM]	-23%[46.1 µM]	-5.3%	nt	-10%	nt	2%	nt
O=c1[nH]c2ccc(NC(=S)NCCc3ccccc3)cc2[nH]1	nt	nt	nt	1%	15%	3%	nt	3%
O=C(N/N=C/c1ccccc1C(=O)O)c1cc(-c2ccc3c4c(cccc24)CC3)n[nH]1	5%	?	nt	1%	-7%	nt	nt	8%
COc1cc(OC)cc(-c2nc(-c3ccccc3)no2)c1	18%	25%	-0.5%	-2%	38%[activator]	4%	-12%	-7%
O=C1C=CC2=C3c4cc(O)c(O)cc4CC3(O)COC2=C1O (stereo not given)	nt	nt	?	nt	?	nt	?	-15%
COc1cc(/C=C/C(=O)N[C@@H](Cc2c[nH]c3ccccc23)C(=O)O)ccc1O	6%	20%[46.1 µM]	nt	0%	-9%	3%	nt	8%
COc1ccc(C2=NS(=O)(=O)N(C)C(C(=O)NCc3ccc(F)cc3)=C2)cc1OC	nt	nt	nt	8%	?	17%	nt	14%
CCCCOC(=O)c1ccc(N/C(=N\S(=O)(=O)c2ccccc2)c2ccccc2)cc1	?	?	-11%	8%	4%	-1%	10%	5%
COc1cc(C)ccc1OCCOCCOc1c(C)cc(C)cc1Br	-4%	4%	-2.9%	-4%	-14%	0%	0%	-1%
CN(C)Cc1cnc2ccc(Cl)cn12	6%	-1%	1.9%	1%	4%	4%	6%	-6%
Cc1[nH]nc(-c2ccc(O)cc2O)c1-c1ccc(Cl)cc1	-14%	-13%	-11%	-10%	?	-25%	-5%	6%
Cc1cc(C)c(S(=O)(=O)NC2CC(C)(C)NC(C)(C)C2)cc1C	-18%[46.1 µM]	?	nt	-1%	19%	6%	nt	-8%

Single records, from the list above. Screens in order: LASV entry inh, Marburg entry inh, Cruzain inh Det, SARS PLP yeast, StopGo reporter, NS1 function inh, Cruzain noTriton, RE007 growth inh
O=C(N/N=C/c1ccccc1C(=O)O)c1cc(-c2ccc3c4c(cccc24)CC3)n[nH]1 in the list: 5%, ?, nt, 1%, -7%, nt, nt, 8%
COc1ccc(C2=NS(=O)(=O)N(C)C(C(=O)NCc3ccc(F)cc3)=C2)cc1OC in the list: nt, nt, nt, 8%, ?, 17%, nt, 14%
CCCCOC(=O)c1ccc(N/C(=N\S(=O)(=O)c2ccccc2)c2ccccc2)cc1 in the list: ?, ?, -11%, 8%, 4%, -1%, 10%, 5%

(continued)
SMILES	LASV entry inh	Marburg entry inh	Cruzain inh Det	SARS PLP yeast	StopGo reporter	NS1 function inh	Cruzain noTriton	RE007 growth inh
CCc1cc2c(=O)c(-c3nc4ccccc4n3C)c(COCC(=O)O)oc2cc1O	27%	-8%	7.2%	2%	nt	-3%	3%	7%
COc1ccc(-c2nc(CN3CCN(Cc4cccc(F)c4)CC3)c(C)o2)cc1	-19%[46.1 µM]	?	nt	4%	-3%	11%	nt	4%
CC(=O)N[C@@H](Cc1c[nH]c2ccccc12)C(=O)OCC(=O)Nc1cc(C)on1	-5%[46.1 µM]	-5%[46.1 µM]	nt	nt	-8%	nt	nt	6%
Cc1ccc(-c2noc(CN(C)C(=O)c3ccc(Br)o3)n2)cc1	7%[46.1 µM]	-1%	nt	-7%	17%	nt	nt	24%
Cn1c(=O)c2[nH]c(C3CC4CCC3C4)nc2n(C)c1=O (stereo not given)	-3%	-9%	nt	nt	-14%	nt	nt	12%
CSc1nnc2c3ccccc3n(Cc3ccccc3)c2n1	-6%	-4%	-1.0%	-2%	-47%	-7%	-2%	2%
Cc1ccccc1OCCCN1CCOCC1	nt	nt	nt	-2%	28%	1%	nt	0%
Cc1cc2ccc(C)c(C)c2nc1SCC(=O)c1cccs1	-13%	?	-6.5%	-5%	0%	5%	-27%	-8%
CCOC(=O)c1cnc(SCC(=O)OCC(=O)NC2CCS(=O)(=O)C2)nc1N (stereo not given)	-10%	-19%	nt	7%	-16%	nt	nt	1%
O=C(CCN1C(=O)/C(=C\c2cccc(Br)c2)SC1=S)N1CCOCC1	0%	?	nt	-4%	-13%	13%	nt	-6%
Cc1ccc(C)n1CCN1CCN(CC(=O)Nc2ccc(S(N)(=O)=O)cc2)CC1	-2%	19%	1.7%	-2%	-4%	2%	3%	-4%
CCCC(=O)Nc1ccc(Cl)c(NC(=O)c2ccc([N+](=O)[O-])cc2Cl)c1	6%	?	-1.3%	-17%	-10%	-8%	4%	24%
CCCC(=O)Nc1ccc(Cl)c(NC(=O)c2cccnc2)c1	2%	-18%	1.8%	2%	nt	-7%	-2%	5%
Cc1ccnc(NC(=O)c2cccc(NC(=O)c3ccc(Cl)c(Cl)c3)c2)c1	-4%[46.1 µM]	?	nt	nt	-3%	nt	nt	-21%
CO/N=C/C(=N\Nc1ccc(OC)cc1)C(=O)c1ccc(OC)cc1	11µM*	?	-7.5%	-4%	-22%	3%	11%	-17%
Cc1noc(C(=O)Nc2ccccc2C(F)(F)F)c1Cl	18%	19%	0.5%	-3%	20%	-18%	-7%	-12%
CC(=O)N1CCN(CC(O)COc2ccc(Br)cc2)CC1 (stereo not given)	nt	nt	nt	9%	-9%	16%	nt	0%
CCCc1cc(=O)oc2cc(OCC(=O)NC3CCN(Cc4ccccc4)CC3)ccc12	nt	nt	nt	0%	-9%	1%	nt	-6%
CCS(=O)(=O)c1ncc(N(Cc2ccco2)Cc2ccccc2F)c(C(=O)Nc2cccc(Cl)c2)n1	?	-11%[46.1 µM]	-3.4%	nt	-10%	nt	20µM*	nt
CC1(C)CC(=O)C2=C(C1)C(c1cn(-c3ccccc3)nc1-c1ccccc1)C(C#N)=C(N)O2 (stereo not given)	16%	?	-8.5%	0%	-3%	7%	11%	0%

Exported with values under each structure: part of the list above
Order of values – LASV entry inh | Marburg entry inh | Cruzain inh Det | SARS PLP yeast | StopGo reporter | NS1 function inh | Cruzain noTriton | RE007 growth inh
CC(C)NC(=O)c1cc2c(C(F)(F)F)nn(C)c2s1
    1% | -9% | 1.3% | 2% | -5% | 3% | 2% | 0%
O=S(=O)(NCC(c1ccco1)N1CCc2ccccc2C1)c1ccc(Br)cc1 (stereo not given)
    ? | ? | nt | -14% | 11% | nt | nt | -2%
Cc1onc(-c2c(Cl)cccc2Cl)c1C(=O)NC(C)(C)CO
    0% | -4% | 2.6% | 1% | 20% | 3% | 1% | -13%
Cc1ccc2oc(-c3ccc(Cl)c(NC(=O)c4cc5ccccc5o4)c3)nc2c1
    ? | ? | 0.0% | nt | 54%[activator] | nt | 7% | nt

(further entries)
SMILES	LASV entry inh	Marburg entry inh	Cruzain inh Det	SARS PLP yeast	StopGo reporter	NS1 function inh	Cruzain noTriton	RE007 growth inh
COCCNC(=O)c1sc2ncn(CC(=O)N3CCCCC3)c(=O)c2c1C	26%	17%	-3.7%	3%	-10%	-4%	-11%	-16%
O=c1c(C(c2ccc(F)cc2)c2c(O)nc3n(c2=O)CCCS3)c(O)nc2n1CCCS2	nt	nt	nt	1%	-18%	1%	nt	-6%
CC(=O)Nc1ccc(NC(=O)C2Cc3ccccc3N2C(=O)c2ccccc2)cc1 (stereo not given)	3%[46.1 µM]	nt	0.1%	nt	-3%	nt	13%	nt
COc1cc(/C=C/C(=O)c2ccc3c(c2)OCCO3)cc(OC)c1OC	nt	nt	nt	-8%	?	-25%	nt	0%
CCC1CCCCN1CCCNC(=O)c1cc2c(=O)oc3ccc(C)cc3c2s1 (stereo not given)	nt	nt	nt	1%	7%	12%	nt	-10%
O=C(Cc1ccc(Cl)cc1)Nc1nc2ccccc2[nH]1	0%	11%	3.7%	-7%	13%	1%	0%	-3%
O=S(=O)(c1ccc(F)cc1)n1ccc(-c2cnc(-c3ccccc3)s2)n1	1%	-1%	-5.4%	-1%	-8%	-7%	1%	8%
CCOC(=O)C1CCCN(C(=O)COC(=O)C2=COCCO2)C1 (stereo not given)	1%	13%	3.0%	0%	7%	-1%	-3%	7%
Cc1cc(C)n(C2CCCCC2OC(=O)CCc2ccccc2)n1 (stereo not given)	0%[46.1 µM]	-14%[46.1 µM]	nt	2%	-1%	-38%	nt	7%
CN(C)S(=O)(=O)c1ccc(C(=O)Nc2ccnn2C2CCCCC2)cc1	-16%	?	6.8%	1%	28µM*	-5%	14%	7%
COc1ccc(S(=O)(=O)N2CCCN(Cc3cccc(F)c3)CC2)cc1	?	?	2.6%	?	-8%	-6%	10%	-1%
CC(NC(=O)OC1CCCCC1)N1C(=O)C2C3C=CC(C3)C2C1=O (stereo not given)	20%	20%	3.7%	1%	-8%	-2%	-6%	3%
CN(C(=O)c1ccc2c(c1)S(=O)(=O)N=C1CCCCCN12)c1ccccc1	-4%	-18%[46.1 µM]	nt	0%	-10%	nt	nt	9%
